Screens: PubChem BioAssay, Center for Chemical Genomics, University of Michigan
TAR Tat displ – HIV-1 TAR-Tat binding disruption. HIV-1 TAR RNA, Tat peptide displacement FRET; active compounds read high. 100,000 tested, 0.6% active. z-score (concentration not given with the values);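 note: score is relative to mean and SD of negative controls; some compounds called inactive have numbers as strong as hits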
CDC25B CDK2 inh – human CDC25B-CDK2/CyclinA binding inhibition. AID 1259370. HTRF CDC25B-CDK2/CyclinA binding, anti-His/anti-Flag; active compounds read high. z-score (no concentration beside the values). 94,000 tested, 0.72% active;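 note: score is relative to mean and SD of negative controls; strong numbers were not always called active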
Active calls of the source: *; x = not tested or not shown.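 Rule for the calls: active = z-score from 3 up in half or more of its runs; inactive = the rest.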

SMILES	TAR Tat displ	CDC25B CDK2 inh
O=C(Nc1cncc(C#Cc2ccccc2)c1)N1CCOCC1	x	-1.7
CC1CN(C(=O)Cn2cc(SCC(=O)NC3CCCC3)c3ccccc32)CC(C)O1 (stereo not drawn)	1.1	x
O=C(CCc1nnc2ccc(N3CCCCC3)nn12)NCc1ccc2c(c1)OCO2	0.24	x
Cc1nc(SCc2cc(=O)c3ccc(C)c(C)c3[nH]2)n[nH]1	1.4	x
COc1ccc(-c2ccc(-c3noc(-c4ccccc4F)n3)c(OC)n2)cc1	0.4	0.69
O=C(O)CN(CC(O)Cn1c2ccccc2c2ccccc21)S(=O)(=O)c1ccc(Cl)cc1 (stereo not drawn)	-0.81	-1.9
CN(C)/C=C1\SCc2ccccc2C1=O	x	-2
S=c1[nH]nc2n(-c3ccccc3)c3ccccc3n12	x	-2.2
O=C(Nc1c(C(=O)c2ccc(Cl)cc2)oc2ccccc12)c1ccco1	-0.34	-1.3
CCN1CCN(c2nc(NCc3cccc(C)c3)c3cnn(C)c3n2)CC1	0.77	x
O=C(CSc1nc2ccccc2nc1N1CCCC1)Nc1ccc(Br)cc1	0.93	-2.4
O=C(Nc1cccc(NC(=O)c2sc3ccccc3c2Cl)c1)c1ccco1	x	-1.7
CCc1ccc(S(=O)(=O)c2cn(C)c3cc(N4CCCCC4C)c(F)cc3c2=O)cc1 (stereo not drawn)	-0.62	x
CC(C)c1ccc(CNc2nc(-c3ccco3)nn2S(C)(=O)=O)cc1	1.6	-2
COc1ccc(N2C(=O)CSC2c2ccc3c(c2)OCO3)cc1 (stereo not drawn)	0.39	-0.58
CC1=C(C(=O)Nc2ccc(F)cc2F)C2(CCCCC2)OC1=O	-0.94	-0.91
CN(C)c1ccc(C(CNS(=O)(=O)c2cccs2)N2CCCC2)cc1 (stereo not drawn)	-0.47	x
COc1ccc(-c2nc(-c3cc4ccc(C)cc4[nH]c3=O)no2)cc1OC	0.53	-0.4
Cn1cc(Cl)c(C(=O)Nc2ccc(F)cc2F)n1	1	-1.2
O=C(O)CSc1n[nH]c(-c2ccncc2)n1	-0.19	-2.2

Three structures out of the list, ordered by length of the SMILES, lowest first.
SMILES	TAR Tat displ	CDC25B CDK2 inh
CN(C)c1ccc(C(CNS(=O)(=O)c2cccs2)N2CCCC2)cc1 (stereo not drawn)	-0.47	x
O=C(Nc1cccc(NC(=O)c2sc3ccccc3c2Cl)c1)c1ccco1	x	-1.7
CCc1ccc(S(=O)(=O)c2cn(C)c3cc(N4CCCCC4C)c(F)cc3c2=O)cc1 (stereo not drawn)	-0.62	x

Later entries.
SMILES	TAR Tat displ	CDC25B CDK2 inh
CCOC(=O)c1c(C)[nH]c(C)c1S(=O)(=O)NCC(=O)N(C)Cc1ccco1	-0.42	x
CCn1c(-c2ccccc2Br)n[nH]c1=S	x	-1.7
CCCn1c(NCc2sccc2C)nc2ccccc21	1.2	-1.4
COc1cc(N2CCn3c(nc4ccccc43)C2)ccc1N	-9.3	0.56
CC(C)CCNc1c(-c2ccc(Br)cc2)nc2c(C#N)c[nH]n12	0.58	0.87
Cc1cc(C)nc(NC(=O)Cc2cccs2)n1	1.4	-0.35
C=CCNc1oc(-c2ccc(OC)cc2)nc1C#N	0.35	-0.65
CCOc1ccc(Nc2nc(N)c([N+](=O)[O-])c(N3CCCC3)n2)cc1	0.67	x
COCc1nc(SCC(=O)OC)c(C#N)cc1C(=O)OC	x	0.82
CN1C(C(=O)NCc2cccnc2)=CC(c2ccc(F)cc2)=NS1(=O)=O	2.4	-1.4
COc1ccccc1CN[C@H]1CS(=O)(=O)C[C@@H]1S(=O)(=O)c1ccccc1	-1.7	-1.7
O=C(O)CCCCCNc1nc(-c2ccccc2)nc2ccccc12	0.42	-1.9
CC(C)c1ccc(S(=O)(=O)c2c[nH]c3ccc(F)cc3c2=O)cc1	1.2	-1.5
O=C(O)CCC1NC(=S)N(c2ccccc2)C1=O (stereo not drawn)	x	-1.9
COc1ccc(C(CC(=O)c2ccccc2)CC(=O)c2ccccc2)cc1	x	-1.2
CCCCC(=O)OCc1cc(=O)n2ccsc2n1	1.5	x
CS(=O)(=O)c1ncc(Cl)c(C(=O)N(Cc2ccco2)C2CCS(=O)(=O)C2)n1 (stereo not drawn)	2	-0.78
CN(C)c1ccc(CN(C(=O)c2cc(=O)c3cc(Cl)ccc3o2)C2CCS(=O)(=O)C2)cc1 (stereo not drawn)	0.49	0.01
CCCc1nc(Nc2ccc(F)cc2)[nH]c(=O)c1Br	0.16	-2.6
Cc1nc(NCCc2ccccc2)c2c3c(sc2n1)CCC3	x	-0.48

A few values from the results shown:
`CCCn1c(NCc2sccc2C)nc2ccccc21` in TAR Tat displ: 1.2
`CC(C)c1ccc(S(=O)(=O)c2c[nH]c3ccc(F)cc3c2=O)cc1` in CDC25B CDK2 inh: -1.5
`COc1ccccc1CN[C@H]1CS(=O)(=O)C[C@@H]1S(=O)(=O)c1ccccc1` in TAR Tat displ: -1.7
`CCCCC(=O)OCc1cc(=O)n2ccsc2n1` in TAR Tat displ: 1.5

Following part:
SMILES	TAR Tat displ	CDC25B CDK2 inh
CC1=C(C(=O)OC(C)C)C(c2ccccn2)n2ncnc2N1 (stereo not drawn)	0.99	-1
CC(C)CCNc1ncnc2onc(-c3ccc(F)cc3)c12	-0.18	x
Cc1ccc(-c2noc(CSc3nc(N)cc(=O)[nH]3)n2)cc1	1.5	2.5
COCCNc1nc2c(-c3cccc(Br)c3)nnn2c2ccccc12	-0.3	-0.36
CCOC(=O)C(NC(C)=O)(Nc1nc2ccccc2s1)C(F)(F)F (stereo not drawn)	x	-0.51
NS(=O)(=O)c1ccc(NC(=O)c2ccc3nc(-c4ccccc4)c(-c4ccccc4)nc3c2)cc1	x	-1.8
O=[N+]([O-])c1ccc(NC(=S)Nc2cccc(C(F)(F)F)c2)cc1	x	-0.26
CCOC(=O)C(C)n1nc(C)n2c(cc3occc32)c1=O (stereo not drawn)	-0.31	-0.29
Brc1ccc(-c2nn3c(-c4ccncc4)nnc3s2)cc1	-0.29	-1.7
CN(Cc1ccccc1)Cc1c(O)ccc2c(=O)c(-c3ccccc3Cl)coc12	1.2	-1
CCOc1cccc(C2C3=C(CC(C)(C)CC3=O)Nc3cc4c(cc32)OCO4)c1 (stereo not drawn)	-0.88	-1.4
Cc1nc2cc(NCc3ccncc3)ccc2n1C	-0.77	14*
Cc1oc2cc(OC(=O)c3ccco3)ccc2c(=O)c1-c1nc2ccccc2n1C	0.56	0.11
COc1nc(NCC(C)C)nc(Oc2ccc(=O)n(C)n2)n1	2.8	-0.38
O=C(CC(c1ccco1)C1CCCCC1=O)c1ccccc1 (stereo not drawn)	x	-0.3
COc1ccc(N2C(=O)c3cccnc3C2Nc2ccccc2Cl)cc1 (stereo not drawn)	1.4	x
Cn1c(=O)oc2cc(S(=O)(=O)N(CCO)CCO)ccc21	-2.4	-1.3
CCOc1ccc(-c2cc(C(=O)Nc3nc(-c4ccc5ccccc5c4)cs3)c3ccccc3n2)cc1	x	-6.1
COc1ccc(N(C(=O)CC2CCCCC2)C2C=CS(=O)(=O)C2)c(OC)c1 (stereo not drawn)	0.13	-0.08
O=S(=O)(NCc1csc(-c2cccs2)n1)c1ccccc1	x	1.4
COC(=O)c1cc(S(=O)(=O)N2CCc3ccccc3C2)cn1C	1.9	-0.63
CCOC(=O)Cc1cnc(NC(=O)CSc2nc3ncnc(N)c3[nH]2)s1	x	-0.31
Cc1cc2cc(CCNS(=O)(=O)c3ccc(Br)cc3)c(=O)[nH]c2cc1C	x	-0.33
Cn1ncc2c(NCc3ccc(Cl)cc3)nc(N3CCCCC3)nc21	2.3	x
COc1cccc(NCc2nnc3n2CCCCC3)c1	0.78	x
O=C(C1CCCN(S(=O)(=O)c2cccc3nsnc23)C1)N1CCN(c2ccccc2F)CC1 (stereo not drawn)	-1.1	-0.99
CCc1cccc(NCC(O)Cn2nnnc2-c2ccccc2)c1 (stereo not drawn)	0.96	-0.58
COC(=O)c1ccc(Cn2nc(N3CCN(c4ccc(F)cc4)CC3)ccc2=O)o1	0.41	-0.73
Cc1cc(C)n(CCc2nc3c4ccccc4nc(N4CCN(Cc5ccccc5)CC4)n3n2)n1	0.38	0.95
COCCOC(=O)C1=C(C)NC2=C(C(=O)CCC2)C1c1cc(OC)c(OC)cc1Br (stereo not drawn)	1.9	-0.48
O=C(NCc1ccccc1Cl)NC1(C(F)(F)F)Oc2ccccc2O1	x	-0.93
O=C(Nc1ccc(Cl)cc1Cl)c1cccnc1SCCS(=O)(=O)c1ccccc1	x	-3.9
O=c1c(F)cn(Cc2ccc(F)cc2)c(=O)n1Cc1ccc(F)cc1	1.6	0.04
O=C(CSc1nc2ccccc2[nH]1)N1CCc2ccccc2C1	1.1	-0.44
Cc1cc(-c2ccccc2C(=O)NC2CCCCC2)on1	x	-0.39
CCCOc1c(C(=O)OC)sc2ccc(NC(=O)c3cnccn3)cc12	0.58	x
COc1ccc(C(=O)/C(C#N)=C/N=S(C)(=O)c2ccc(C(F)(F)F)cn2)cc1 (stereo not drawn)	x	-1
CC1CCN(C(=O)C2CCCN(C(=O)c3cnn(-c4ccc(F)cc4)c3-n3cccc3)C2)CC1 (stereo not drawn)	0.12	x
CCc1ccc2occ(CC(=O)Nc3sc4c(c3C(=O)OC)CCC4)c2c1	-0.78	-2
COCCNC(=O)Cn1c(=O)c2cccn2c2cccnc21	-0.47	x

Another view of part of the listing above.
The line under a structure holds: TAR Tat displ | CDC25B CDK2 inh
- O=C(Nc1ccc(Cl)cc1Cl)c1cccnc1SCCS(=O)(=O)c1ccccc1
 : x | -3.9
- O=c1c(F)cn(Cc2ccc(F)cc2)c(=O)n1Cc1ccc(F)cc1
 : 1.6 | 0.04
- O=C(CSc1nc2ccccc2[nH]1)N1CCc2ccccc2C1
 : 1.1 | -0.44
- Cc1cc(-c2ccccc2C(=O)NC2CCCCC2)on1
 : x | -0.39
- CCCOc1c(C(=O)OC)sc2ccc(NC(=O)c3cnccn3)cc12
 : 0.58 | x
- COc1ccc(C(=O)/C(C#N)=C/N=S(C)(=O)c2ccc(C(F)(F)F)cn2)cc1 (stereo not drawn)
 : x | -1
- CC1CCN(C(=O)C2CCCN(C(=O)c3cnn(-c4ccc(F)cc4)c3-n3cccc3)C2)CC1 (stereo not drawn)
 : 0.12 | x

(next part)
SMILES	TAR Tat displ	CDC25B CDK2 inh
CCCSC1=C(C#N)C(c2ccc(CC)cc2)CC(=O)N1 (stereo not drawn)	0.78	-0.36
CCOC(=O)c1ccc2nc(-n3cccc3)sc2c1	x	0.02
Brc1cccc(CNc2n[nH]c(-c3ccco3)n2)c1	2.6	-1.9
O=C(C1CCCN(c2ncnc3c2nc2n3CCCCC2)C1)N1CCN(c2cccc(Cl)c2)CC1 (stereo not drawn)	0.96	x
Clc1ccc(OSOc2ccc(-c3ccc(OSOc4ccc(Cl)cc4)cc3)cc2)cc1	x	-1.9
O=C1c2cccnc2C(=O)N1Cc1ccc(S(=O)(=O)Nc2ccc(Cl)cc2F)s1	-0.42	x
O=S(=O)(c1ccc2ccccc2c1)n1nc(-c2ccco2)nc1NCc1cccc(Cl)c1	-0.16	1.5
CCCN1C(=O)C(O)(CC(=O)c2c(C)coc2C)c2cc(Br)ccc21 (stereo not drawn)	-0.27	-0.25
Cc1nc2c(c(C)nn2C)c(C)c1CCC(=O)NCC1CCCO1 (stereo not drawn)	1.4	-0.86
CSc1nc(C)cc(Nc2ccccc2)n1	-0.67	-1
O=C1CC(c2ccco2)Cc2[nH]c(=O)c(-c3nc(-c4ccc(Oc5ccccc5)cc4)cs3)cc21 (stereo not drawn)	0.71	16
Cn1c(=O)c2c(SCc3cccnc3)nc(-c3cccs3)nc2n(C)c1=O	x	-1.2
CC(C)NCC(O)COc1ccc(COCCOC(C)C)cc1 (stereo not drawn)	-0.4	5.2*
O=C(Nc1ccc(Br)cn1)c1cccs1	x	0.72
CCc1cc2c3c(c(=O)oc2cc1OCC(=O)OC(C)(C)C)CCCC3	x	-2.9
O=S(=O)(c1ccc2c(c1)OCCO2)N1CCNCC1	-0.67	-1.4
O=C(NCc1csc(-c2ccccc2)n1)[C@H]1CSCN1C(=O)c1ccc(F)c(F)c1	1.4	x
N=C1C(c2nc3ccccc3[nH]2)=C(O)CN1C1CCCC1	2.3	-4
COc1ccc(Cl)cc1-c1nc2ccc(OC(C)=O)cc2c(=O)o1	-1	-0.22
CCCCC(CC)n1[nH]c(=O)c2c(C)cc(C)nc21 (stereo not drawn)	3.2	-1.7
O=C1c2ccccc2C(=O)N1CCCn1c(=O)oc2ccccc21	x	-5.9
O=c1c2ccccc2nnn1Cc1noc(-c2ccccc2Br)n1	0.18	x
Nc1ccccc1SCc1cc(=O)n2c3c(sc2n1)CCCC3	0.95	x
COC(=O)c1sccc1NC(=O)c1c(C)c(=O)on1C	x	-0.22
COc1ccc(-c2cc(=O)c3cc(OC)ccc3o2)cc1	-0.24	x
O/N=C(/C(=N/O)c1ccco1)c1ccco1	x	-1.1
O=C(CN1Cc2ccccc2C1=O)N1CCN(c2ccccc2F)CC1	-0.69	x
Cc1cccc(-c2nc3nc(C)cc(N(C)CCO)n3n2)c1	0.54	-1.3
Cc1ccn2c(=O)c(NC(=O)c3sc(-c4ccccc4)nc3C)c(C)nc2c1	0.2	x
CCOC(=O)c1c(C)oc2nc(C)nc(N3CCN(c4ccccc4F)CC3)c12	-0.6	x
CN=c1scc(C)n1NC(=O)Nc1ccc(Cl)cc1	x	-1.8
COc1cc(-c2ccno2)ccc1S(=O)(=O)N1CCN(c2cc(C)ccc2C)CC1	0.7	x
CCC(=O)N1c2ccccc2CC1C(=O)NC (stereo not drawn)	1.5	x
COC(=O)c1sccc1N/C=C(\C#N)S(=O)(=O)C(C)(C)C	x	-1.7
CSc1ncc(Cl)c(C(=O)Nc2nnc(C)s2)n1	0.35	-1.9
CSc1cccc(NC(=O)COCc2cc(-c3cccs3)on2)c1	-0.14	x
CCN(CC)CCNC(=O)CCc1nnc2ccc(N3CCN(C)CC3)nn12	0.45	x
O=C(Nc1ccc(Br)cn1)c1sc2ccccc2c1Cl	x	-0.91
